High-throughput results (PubChem BioAssay)
VACV Venus inh: vaccinia inhibition (Venus reporter); Vaccinia virus Venus reporter expression, fluorescence; Potency, µM (doses to about 36.5 µM), inactives show at the top dose activity change, negative = inhibition, usual class: inhibitors; actives 0.46% (n = 330,000); active means well fitted inhibition curve with a large enough effect; inconclusive means small, poorly fitted or top-dose-only effect; inactive means no such curve, though single readings can be large or run the other way; tested in A549 cells; also: nearly all actives have a fitted effect of over 30% in size; inactives centre near -10
Vaccinia mCherry: vaccinia inhibition (mCherry reporter). Vaccinia virus mCherry reporter infection, fluorescence; about a quarter of the inactives have no number. Potency, µM (titrated, usually from 36.5 µM), without a hit: at the highest dose activity change, negative = inhibition, most hits filed as inhibitors. actives 0.63% (n = 310,000). AID 720579; active = well fitted inhibition curve with a large enough effect; inconclusive = small, poorly fitted or top-dose-only effect; inactive = no such curve, though single readings can be large or run the other way; tested in A549 cells; also: nearly all actives have a fitted effect of over 35% in size; inactives centre near -10
Active calls of the source: *; i = inactive; ? = inconclusive; . = not tested or not shown; & = joins results of further samples; [ ] = remark or other dose. % is scaled to controls: 0 for no effect and ±100 for the full control effect; potency is read from the fitted curve at half-maximal effect.

SMILES | VACV Venus inh | Vaccinia mCherry
CCOc1cccc2sc(N(CCCN(C)C)C(=O)c3ccc(C(=O)c4ccccc4)cc3)nc12 | -27.7% | -19.3%
CCN(CCCNS(=O)(=O)c1ccc2c(c1)oc(=O)n2C)c1cccc(C)c1 | -8.5% | -12.5%
O=C1CSC(c2ccc([N+](=O)[O-])cc2)N1C1CCCCC1 (centres undefined) | -13.6% | -11.2%
CCCOc1cc(N)ccc1C(=O)OCCN(CC)CC | -11.3% | -12.2%
O=C(O)c1cccc(COc2ccc(CO)cc2Cl)c1 | -9.6% | i
CNC(=S)NNC(=O)c1oc2nc(-c3ccccc3)cc(C)c2c1N | -6.2%[7.34 µM] | -13.8%[7.34 µM]
C[C@@H]1CN([C@@H](C)CO)C(=O)c2cc(Br)cnc2O[C@H]1CN(C)Cc1cccc(C(=O)O)c1 | -24.4% | i
COc1ccc(CCN2C(=O)N(c3ccccc3)C(=O)C2CC(=O)Nc2ccccc2)cc1 (centres undefined) | 5.2% | -5.8%
Cc1nn(-c2ccc(F)cc2)c(C)c1CNC(=O)c1ccc(-n2cc(NC(=O)c3ccoc3)cn2)cc1 | -1.2% | -3.2%
CCc1nc(SCC(=O)NC2CCCC2)c2oc3ccccc3c2n1 | -7.7% | -9.1%
Cc1nn(C)c(C(=O)Nc2c(C)nn(Cc3c(F)c(F)c(F)c(F)c3F)c2C)c1Br | -13.3% | -15.7%
O=C(OCCN1CCOCC1)C1(c2ccccc2)CCCCC1 | ? | ?
COCCn1nnnc1C(c1cccs1)N1CCN(c2cccc(C(F)(F)F)c2)CC1 (centres undefined) | -27.1% | -7.6%
COC(=O)c1ccccc1OCCCCN1CC(C)OC(C)C1 (centres undefined) | -9.3% | i
NC(=S)n1[nH]c(-c2ccc([N+](=O)[O-])cc2)c(N=Nc2cccc([N+](=O)[O-])c2)c1=O | -7.6% | -22.6%
Cc1cc(C)cc(OC(C)C(=O)Nc2nc3c(s2)CCCC3)c1 (centres undefined) | -12.1% | -10.7%
CC1CCN(S(=O)(=O)c2ccc(NC(=O)C3CC(=O)N(c4ccccc4)C3)cc2)CC1 (centres undefined) | -28.3% | -26.6%
Cc1[nH]c2ccccc2c1C(=O)C(C)Sc1nc2ccccc2c(=O)n1Cc1cccnc1 (centres undefined) | -14.7% | 11.5%
COc1ccccc1CNC(=O)CC1C(=O)NCCN1C1Cc2ccccc2C1 (centres undefined) | -16.4% | -6.5%
CCOc1ccc(-n2c(-c3ccc(Cl)cc3)c[n+]3c2SCC3)cc1 | -7.5% | i
O=C(OCC1CCCO1)c1ccc2c(c1)N(Cc1cccc(F)c1)C(=O)c1ccccc1S2(=O)=O (centres undefined) | -7.6% | -6.4%
C=C(C)Cn1c(N2CCC(Cc3ccccc3)CC2)nc2c1c(=O)[nH]c(=O)n2C | -15.0% | -27.6%
O=C(NCc1ccco1)c1ccc2c(c1)N(Cc1c(F)cccc1Cl)C(=O)c1ccccc1S2 | -19.7% | -21.5%
Cc1cc(C)nc(Sc2c(F)c(F)c(C(F)(F)F)c(F)c2F)n1 | -18.6% | .
Cc1nc2ccccc2nc1OCC(=O)Nc1ccc2ccccc2c1 | -6.9% | -10.5%

Five successive entries from above, quoted:
SMILES | VACV Venus inh | Vaccinia mCherry
O=C(O)c1cccc(COc2ccc(CO)cc2Cl)c1 | -9.6% | i
CNC(=S)NNC(=O)c1oc2nc(-c3ccccc3)cc(C)c2c1N | -6.2%[7.34 µM] | -13.8%[7.34 µM]
C[C@@H]1CN([C@@H](C)CO)C(=O)c2cc(Br)cnc2O[C@H]1CN(C)Cc1cccc(C(=O)O)c1 | -24.4% | i
COc1ccc(CCN2C(=O)N(c3ccccc3)C(=O)C2CC(=O)Nc2ccccc2)cc1 (centres undefined) | 5.2% | -5.8%
Cc1nn(-c2ccc(F)cc2)c(C)c1CNC(=O)c1ccc(-n2cc(NC(=O)c3ccoc3)cn2)cc1 | -1.2% | -3.2%

Other records:
SMILES | VACV Venus inh | Vaccinia mCherry
C[C@H]1CN([C@@H](C)CO)C(=O)CCCn2nncc2CO[C@H]1CN(C)C(=O)Nc1cccc2ccccc12 | 1.2% | 11.0%
CC(=O)Nc1ccc(C=C2C(=O)NC(=O)NC2=O)cc1 | -3.9% | -12.8%
C[C@@H]1CN([C@H](C)CO)C(=O)c2cc(/C=C/c3ccccc3)cnc2O[C@H]1CN(C)C(=O)NC1CCCCC1 | -23.4% | i
COc1ccc(N2CC(C(=O)Nc3ccc4c(c3)OCO4)CC2=O)cc1 (centres undefined) | -9.3% | -18.0%
CCCCCCCC1CC(CSC(=N)N)OC1=O (centres undefined) | 10.5% | -15.9%
COC(=O)c1c(NC(=O)C2C3CCC(C3)C2C(=O)O)sc2c1CCCCC2 (centres undefined) | -11.3% | -12.2%
Cc1ccc(CN2CCSc3ccc(C(=O)NC4CCN(Cc5ccccc5)CC4)cc32)cc1 | -18.6% | -14.7%
CCCOP(=O)(OCCC)C1(Nc2ccc(C)cc2)CCCCC1 | ? | .
CCN(CCCNC(=O)c1ccc(Sc2ccc(C)cc2)c(NC(C)=O)c1)c1cccc(C)c1 | -13.0% | -9.3%
O=C(NCC1CCCCC1)c1ccc(Br)o1 | -12.7% | -15.0%
COc1ccc(-c2cc(C(F)(F)F)nc(SCC(=O)NCc3cnn(C)c3C)n2)cc1OC | -5.3% | i
COc1cc(C2C(C(=O)c3ccc(C)o3)=C(O)C(=O)N2CCN2CCOCC2)ccc1OCCC(C)C (centres undefined) | -2.0% | -4.7%
CCCCNC(=O)C(=O)c1ccccc1NC(C)=O | -3.7% | -13.6%[1.46 µM]
O=S(=O)(NCCc1ccccc1)c1cccs1 | 0.0% | -14.4%
O=C(Nc1ccc2c(c1)OCCO2)c1cccn(Cc2ccccc2)c1=O | -12.5% | -4.6%
COc1cc(-c2cc(-c3ccccc3)nc(SCC(=O)Nc3nccs3)c2C#N)cc(OC)c1OC | 2.2% | .
CCOc1ccccc1C(C(=O)NC1CCCCC1)N(C(=O)c1csnn1)C1CC1 (centres undefined) | 3.6% | i
O=[N+]([O-])c1cc(S(=O)(=O)N2CCCC2)ccc1NN=C1CCCCC1 | -1.3% | -12.5%
COC(=O)CC(NC(=O)c1ccco1)c1ccc(C(C)C)cc1 (centres undefined) | -7.5% | -10.1%
C[N+]1(CCNC(=O)/C=N/O)CCCCC1 | ? | ?
COc1ccc(NC(=O)COC(=O)c2ccc(-n3cnnn3)cc2)cc1Cl | -13.2% | -13.2%
Cc1nnc(SCc2nc3sc4c(c3c(=O)[nH]2)CCCC4)n(N)c1=O | -12.4% | -0.2%
O=C(NCc1ccncc1)[C@@H]1CCCN1C(=O)[C@H]1CCCN1C(=O)c1c(F)cccc1F | 1.4% | i
Cc1cccc(N2CCN(S(=O)(=O)c3cccs3)CC2)c1C | -4.1% | 2.6%
C=CCNC(=S)N1CCOCC1 | -3.8% | -1.3%

Structures listed so far that contain a furan ring, fused or not:
SMILES | VACV Venus inh | Vaccinia mCherry
CNC(=S)NNC(=O)c1oc2nc(-c3ccccc3)cc(C)c2c1N | -6.2%[7.34 µM] | -13.8%[7.34 µM]
Cc1nn(-c2ccc(F)cc2)c(C)c1CNC(=O)c1ccc(-n2cc(NC(=O)c3ccoc3)cn2)cc1 | -1.2% | -3.2%
CCc1nc(SCC(=O)NC2CCCC2)c2oc3ccccc3c2n1 | -7.7% | -9.1%
O=C(NCc1ccco1)c1ccc2c(c1)N(Cc1c(F)cccc1Cl)C(=O)c1ccccc1S2 | -19.7% | -21.5%
O=C(NCC1CCCCC1)c1ccc(Br)o1 | -12.7% | -15.0%
COc1cc(C2C(C(=O)c3ccc(C)o3)=C(O)C(=O)N2CCN2CCOCC2)ccc1OCCC(C)C (centres undefined) | -2.0% | -4.7%
COC(=O)CC(NC(=O)c1ccco1)c1ccc(C(C)C)cc1 (centres undefined) | -7.5% | -10.1%

Other entries follow.
SMILES | VACV Venus inh | Vaccinia mCherry
Cc1ccsc1/C=N/Nc1nc2ccccc2s1 | -18.3% | -23.3%
CC(=O)Nc1ccc(SCCN2CC[C@@H](C(C)(C)C)CCC2=O)cc1 | -27.2%&-14.9% | -3.7%
C/C(=N\NC(=O)C1CC1)c1ccc(OC(F)F)cc1 | -12.6% | -4.3%
Cc1ccc(CNC(=O)CS(=O)Cc2nc(-c3ccccc3C)oc2C)cc1 (centres undefined) | -11.5% | i
COc1ccccc1OCCNC(=O)c1ccc(NC(=O)CC2SC(N3CCCC3)=NC2=O)cc1 (centres undefined) | -8.8% | -20.8%
CC1CN(CC(O)COC2CCC(C(C)(C)C)CC2)CC(C)O1 (centres undefined) | -16.1% | -11.3%
CCCN(Cc1nnc(-c2ccccc2Cl)o1)C(=O)c1cc([N+](=O)[O-])cc([N+](=O)[O-])c1 | -2.4% | ?
COc1ccc(NC(=O)CSc2ccccn2)cc1OC | 0.3% | -3.7%
COc1ccc(Cl)cc1C(=O)NNC(=O)CCNS(=O)(=O)c1ccccc1 | -0.9% | -1.4%
CC1CCCCC12NC(=O)N(CC(=O)NCCc1ccccc1)C2=O (centres undefined) | 2.9% | i
O=C(NCC1CCCO1)c1ccc(CNS(=O)(=O)c2ccc(F)c(Cl)c2)cc1 (centres undefined) | -10.8% | -9.6%
C/C(=C\C(=O)C(F)(F)F)Nc1cc(C)cc(C)c1 | 4.2% | .
Cc1ccc(CNC(=O)C(=O)NCC(c2ccc3c(c2)OCO3)N2CCOCC2)cc1 (centres undefined) | -6.1% | 4.8%
CCOC(=O)c1c(C)[nH]c(C)c1S(=O)(=O)N1CCCC(C(=O)NCc2ccccc2Cl)C1 (centres undefined) | -7.9% | -16.2%
COC(=O)[C@@]12CCCN1[C@H](c1ccc(-c3ccc4c(c3)OCO4)c(OC)c1)[C@H]1C(=O)N(C)C(=O)[C@H]12 | -6.4% | -4.8%
CCC1Oc2ccccc2N(CC(=O)N2CC(C)CC(C)C2)C1=O (centres undefined) | -5.5% | -24.6%
Fc1ccc(-[n+]2nc(Nc3ccccc3)sc2-c2c3ccccc3cc3ccccc23)cc1 | ? | -13.3%
COCCNC(=S)NC1CC2CCCC(C1)N2Cc1cccs1 (centres undefined) | -22.1% | -22.7%
O=c1oc2ccccc2cc1-c1nc(-c2ccccc2)no1 | -11.6% | -8.5%
Cc1ccccc1-c1cncnc1NCCc1cnc[nH]1 | 0.0% | i
CCn1ncc(Br)c1C(=O)Nc1ccc(F)cc1F | -0.2% | i
OC[C@@H]1[C@@H](c2ccc(Cl)cc2)C(c2cccc(Cl)c2)=NN1c1ccccc1 | ? | ?
Cc1ccc(C)c(N2CCN(C(=O)CCC(=O)Nc3ccc4nc(N5CCCCC5)cc(C)c4c3)CC2)c1 | -21.8% | -27.6%
CCc1ccc2c(c1)C(=O)CCC2 | -12.4% | i
COc1ccccc1NC(=O)NCCN1CCN(C(=O)Nc2ccccc2OC)CC1 | -5.0% | 12.3%
Following part.
SMILES | VACV Venus inh | Vaccinia mCherry
CCN(CC)CCNC(=O)c1ccc(NC(=O)c2cccc(-n3cnnn3)c2)cc1 | -11.6% | i
CC(C)[C@H](NC(=O)c1ccc(F)cc1)C(=O)NC1=NCCS1 | -10.6% | i
CCNC(=O)C1(C)CCCN(Cc2noc(-c3c(C)noc3C)n2)C1 (centres undefined) | 7.1% | 11.3%
Cc1nc2c(C)cccn2c(=O)c1NC(=O)c1cccs1 | -8.9% | -0.6%
O=C(NCc1ccccc1)c1nnc(Cc2cccc(F)c2)o1 | -3.7% | -6.7%
O=C(Cc1ccc(F)cc1)N/N=C/c1ccncc1 | -6.0% | -24.5%
O=C(c1ccc(-c2nnc(Nc3cccc(Cl)c3)c3ccccc23)cc1)N1C[C@H]2C[C@H](C1)c1cccc(=O)n1C2 | -29.5% | .
O=C(Cn1c(=O)n(Cc2nc(-c3ccccc3)no2)c(=O)c2ccccc21)Nc1cccc(Cl)c1 | -9.1% | -24.5%
C=CCN1C(=O)NC(=O)/C(=C/c2ccc(OC)c(CSc3ccccn3)c2)C1=O | -29.1% | .
Cc1ccc(NC(=O)CN2CCC(NC(=O)Cc3ccccc3)CC2)cc1C | -26.6% | -1.0%
